Screening data: PubChem BioAssay, several laboratories
rRNA inh HTS – reduced GFP signal of wild-type E. coli, primary screen, bacterial rRNA inhibitor project, GFP/RFP fluorescence, OD600, single point. GFP signal change (wild-type ribosome), % (no concentration beside the values). E. coli WT GFP vs humanized-ribosome RFP mutants, 24 h; active compounds read low; DMSO median 0, no signal -100. 1.6% of 350,000 active;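 active = significant combined selectivity score with lowered wild-type GFP, culture density cut under 30%, mutant RFP and density less affected; inactive = any of these conditions unmet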; note: one replicate is shown; some compounds called inactive have numbers as strong as hits
Beta2AR agonist – beta2AR agonists driving receptor internalization, primary screen, cell-based, FAP fluorogen, flow cytometry. Beta-2 adrenergic receptor (Homo sapiens), P07550. Am2.2-beta2AR cells; reference of the scale not given here. response, % (test concentration not listed). 0.43% of 340,000 active. AID 504454, 2011;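 active = response above a set limit, near 3 SD of response in nonfluorescent compounds, cut at about 42% in these data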;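 note: stock transfer was 100 nL into about 11 µL; a reference agonist was the positive control; negative values mostly stem from fluorescent compounds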
T cruzi inh – inhibitors of intracellular T. cruzi growth, primary screen, luminescence, NIH3T3 host cells; AID 1885, 2009; T. cruzi beta-gal in NIH3T3, 90 h; 1.4% of 300,000 active; inhibition, % (no concentration beside the values);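 active = mean inhibition across valid replicates above about 55%, limit read from the data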;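 note: signal also drops with host cell toxicity which is not excluded here; 0% = plate median of DMSO wells and 100% = zero luminescence signal; higher percent means less beta-gal luminescence so fewer parasites; stock transfer was 50 nL into about 50 µL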
ALR inh – inhibitors of human ALR sulfhydryl oxidase, primary screen, biochemical, H2O2 detection, HRP-luminol luminescence, single point | FAD-linked sulfhydryl oxidase ALR (Homo sapiens), P55789 | purified ALR, DTT oxidation | inhibition, % (concentration not given with the values) | 3.8% of 290,000 active;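 active = mean and each replicate at 75% or more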;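 note: stock transfer was 7.5 nL into about 7.5 µL; 0% = neutral wells and 100% = wells with inactivated enzyme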
Beta apoptosis – inhibitors of cytokine-induced beta cell apoptosis, primary screen, luminescence; INS-1E cytokine-induced death, ATP luminescence, 48 h; percent of positive-control rescue, neutral wells zero; protection from apoptosis, % (no concentration beside the values); 0.8% of 300,000 active; AID 435005, 2010;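 active = all replicates at 75% or more, or half of them and the mean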;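 note: 0% = cytokine-treated negative control wells and 100% = positive control rescue; higher means more ATP so stronger rescue from cytokine killing; wells of about 40 µL received 100 nL stock; the first replicate is given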
Calb FLC – C. albicans growth inhibition with fluconazole, primary screen, CaCi-2 strain, Alamar Blue fluorescence; C. albicans CaCi-2 (fluconazole-resistant clinical isolate) + fluconazole, 48 h; growth inhibition, % (test concentration not listed); 0.57% of 300,000 active; AID 1979, 2009;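 active = most replicates above 75%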;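 note: all wells also contain fluconazole at 8 µg/ml as a sub-toxic cotreatment; 0% = median of DMSO wells and 100% = median of geldanamycin control wells; wells of about 8 µL received 7.5 nL stock; the first replicate is given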
Bfl-1 A1 inh – caspase 3/7 activation in MEF A1-2A-BIM cells, primary screen, A1 inhibitor project, cell-based, luminescence, HTS | Caspase-Glo 3/7 luminescence, 3 h; percent of clofoctol response, vehicle zero | caspase activation, % (test concentration not listed) | 0.066% of 330,000 active;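 active = over half of replicate activation scores above 10%, or exactly half above 10 with the replicate mean above 10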;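 note: wells of about 30 µL received 50 nL stock; many hits fall short of the cut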
LANA-H2A inh – blockers of LANA interaction with H2A/H2B – biochemical, FP readout, HTS, primary screen; Protein LANA1 (Human herpesvirus 8 type P (isolate GK18)), Q9QR71; cell-free LANA-H2A/H2B peptide, fluorescence polarization; inhibition, % (concentration not given with the values); 0.6% of 320,000 active; in the data active = inhibition mostly above about 10%, no sharp cut-off; inactive = mostly below about 6.7%;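 note: stock transfer was 7.5 nL into about 10 µL; 0% = median of vehicle wells and 100% = median of positive control wells; one replicate is shown; the record names a cut of 25% in any replicate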
Target sequence (Q9QR71 whole entry, looked up): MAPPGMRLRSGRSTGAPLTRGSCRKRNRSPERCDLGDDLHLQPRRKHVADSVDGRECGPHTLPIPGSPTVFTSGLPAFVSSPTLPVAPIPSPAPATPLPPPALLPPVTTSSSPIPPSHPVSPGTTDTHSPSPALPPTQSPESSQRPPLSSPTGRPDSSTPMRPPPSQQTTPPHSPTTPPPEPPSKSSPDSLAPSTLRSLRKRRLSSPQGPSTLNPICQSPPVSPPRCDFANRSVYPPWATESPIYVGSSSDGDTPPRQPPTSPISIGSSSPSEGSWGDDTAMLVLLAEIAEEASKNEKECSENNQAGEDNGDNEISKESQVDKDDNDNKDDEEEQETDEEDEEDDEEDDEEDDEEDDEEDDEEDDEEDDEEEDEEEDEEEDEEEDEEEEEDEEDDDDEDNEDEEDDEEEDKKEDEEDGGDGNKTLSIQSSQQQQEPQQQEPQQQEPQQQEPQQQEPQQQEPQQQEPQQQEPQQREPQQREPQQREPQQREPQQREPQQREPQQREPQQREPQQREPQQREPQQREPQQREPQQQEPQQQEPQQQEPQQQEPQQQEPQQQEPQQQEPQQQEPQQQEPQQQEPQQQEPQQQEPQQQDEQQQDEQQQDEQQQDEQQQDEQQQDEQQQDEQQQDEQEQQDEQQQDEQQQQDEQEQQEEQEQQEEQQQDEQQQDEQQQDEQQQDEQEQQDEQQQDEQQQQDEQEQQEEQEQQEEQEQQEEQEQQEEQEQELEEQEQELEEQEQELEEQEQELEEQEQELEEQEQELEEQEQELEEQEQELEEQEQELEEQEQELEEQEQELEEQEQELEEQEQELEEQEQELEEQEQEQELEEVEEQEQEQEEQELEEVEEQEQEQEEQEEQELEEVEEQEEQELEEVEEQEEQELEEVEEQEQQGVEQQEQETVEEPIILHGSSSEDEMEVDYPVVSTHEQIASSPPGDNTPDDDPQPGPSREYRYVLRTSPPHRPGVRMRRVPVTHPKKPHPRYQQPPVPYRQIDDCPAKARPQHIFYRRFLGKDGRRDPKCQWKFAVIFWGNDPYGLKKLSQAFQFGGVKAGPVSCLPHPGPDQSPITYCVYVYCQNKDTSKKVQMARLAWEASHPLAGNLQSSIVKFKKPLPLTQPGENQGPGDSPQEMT
rRNA inh HTS OD600 – second read-out of rRNA inh HTS, no call of its own (marks repeat the call); OD600 change, %; measured here: OD600 growth;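 optical density of the mix in the first replicate; 0 = DMSO median and -100 = no signal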
rRNA inh HTS RFP – second read-out of rRNA inh HTS, no call of its own (marks repeat the call); RFP signal change, %; measured here: RFP humanized mutant strains;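 first replicate; 0 = DMSO median and -100 = no signal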
* marks the source's active call; other numbers are inactive results; . = no result given. This is a subset; count on the stated rates, not on these rows.

smiles	Bfl-1 A1 inh	Beta apoptosis	Beta2AR agonist	T cruzi inh	rRNA inh HTS	rRNA inh HTS OD600	rRNA inh HTS RFP	ALR inh	Calb FLC	LANA-H2A inh
CC(C)CNS(=O)(=O)c1cc(C(=O)N2CCOCC2)c(Cl)cc1Cl	-0.2	.	20	-10	.	.	.	-4	1	-0.1
O=[N+]([O-])c1cccc(/C(=N/N=C/c2ccccc2Br)C23CN4CN(CN(C4)C2)C3)c1	0.8	.	-5	5	.	.	.	-14	-12	0.0
O=C(O)c1cccc(N2C(=O)Nc3ccccc3N2O)c1	0.0	-3	-4	24	.	.	.	-129	-15	-1.1
Cc1cc(-c2nnco2)c(C)n1-c1ccc(F)cc1	0.1	-5	-2	9	4	7	-1.3	7	-7	3.1
CCOc1cc(/C=N/NC(=O)CSc2nncn2C)ccc1OCC(N)=O	0.1	-2	3	-3	9	6	-0.3	.	17	-2.7
COc1ccc(NC(=O)c2ccc3c(c2)OCO3)cc1	-6.0	5	5	-7	5	13	-1.5	-4	-4	-12
Cc1ccc2nc(SCC(=O)Nc3ccc4c(c3)OCO4)nc(=O)n2c1	1.8	.	-2	-2	7	13	-0.2	-15	-5	-4.9
Cc1ccc2nc(NC(=S)NC(=O)c3cccs3)sc2c1	0.7	13	8	6	.	.	.	-4	-5	1.3
CN(C(=O)c1ccccn1)c1nnc(-c2cccnc2)s1	0.4	1	-4	.	5	12	-1.6	-4	.	-0.1
CC(C)(C)n1nnnc1C(c1cccnc1)N1CCN(C2CCCCC2)CC1 (stereo unspecified)	-1.5	0	-4	-8	.	.	.	2	-1	5.0
O=C(NCCc1ccccc1)C(=O)NCCC1CCCCN1S(=O)(=O)c1ccccc1 (stereo unspecified)	-0.4	.	-8	3	-17	-21	3.0	-6	4	-0.8
COCCn1c(C)cc(/C=N/NC(=O)c2cccnc2)c1C	-3.4	-3	2	-10	22	18	0.7	14	8	-4.9
CCCCN1C(=O)C2C(c3ccc(OC)cc3O)NC(CC(C)C)(C(=O)O)C2C1=O (stereo unspecified)	1.4	.	3	-6	13	11	2.1	50	-4	-0.2
Oc1ccccc1N1CCN(c2ncnc3scc(-c4ccccc4)c23)CC1	-0.9	5	4	0	-8	-25	-1.2	21	-2	2.1
Cc1cc(C(=O)NNS(=O)(=O)c2cccc(Cl)c2)nn1C(C)(C)C	-0.3	-7	2	3	-8	-6	-0.3	18	-1	-1.4
Cc1ccc(NC(=O)CNC(=O)c2cccs2)cc1S(=O)(=O)Nc1ccc(Cl)cc1	-0.5	-3	2	9	-20	-42	-15	-2	8	.
COc1ccc(C(=O)Nc2cc(C)nn2-c2cccc(F)c2)cc1OC	0.7	-7	-3	-15	0	3	0.4	-5	3	0.5
O=C1N(Cc2cccnc2)C[C@@H]2C[C@@H](c3cccc(OC4CCCC4)c3)N3CCC[C@@]123	1.2	.	-12	27	-5	-11	2.6	-3	-63	-7.0
Cc1ccc(C(=O)O)cc1-c1ccc(/C=C2\SC(=O)N(CC(=O)Nc3ccc4c(c3)OCO4)C2=O)o1	-0.4	1	10	-7	-2	-1	-1.0	-2	6	-0.1
CCC1CCCCN1C(=O)c1c(-c2ccccc2)noc1C (stereo unspecified)	0.0	-7	1	-2	.	.	.	1	-5	-2.3
COc1ccccc1-c1ccc(/C=C2/C=C(CC(C)C)OC2=O)o1	0.7	.	2	1	.	.	.	7	14	-5.3
COc1cnn(-c2ccc(C)cc2)c(=O)c1Cl	-0.8	-3	-2	-15	2	3	0.8	3	-2	-1.8
O=C(COC(=O)c1ccc([N+](=O)[O-])o1)Nc1ccc(Br)cc1F	0.8	-6	4	.	-10	18	-2.4	-18	.	-1.0
COC(=O)Cn1cc(C#N)c2ccccc21	1.0	-4	-2	-9	.	.	.	4	7	1.7
CC(=O)N1N=C(c2ccc(C)cc2)OC1c1cccnc1 (stereo unspecified)	-1.2	1	4	-9	20	17	2.4	.	-1	2.7
Cc1cc(C(=O)OC(C(=O)Nc2cccc(C(F)(F)F)c2)c2ccccc2)c(C)o1 (stereo unspecified)	-0.2	4	5	41	.	.	.	.	0	1.8
COC(=O)c1ccc(OCCOc2ccccc2C)cc1	0.2	-2	3	-6	-6	-1	0.0	-19	3	2.4
CC(=O)c1ccc(NC(=O)COC(=O)CCc2ccc(S(=O)(=O)N3CCOCC3)cc2)cc1	-0.1	0	1	3	4	12	-1.0	.	-2	-2.6
CN(c1nc2c(c(=O)n(C)c(=O)n2C)n1CC(=O)c1ccccc1)C1CCCCC1	-0.2	9	-2	14	.	.	.	6	1	0.4
O=C(c1cc(COc2ccc(F)c(F)c2)on1)N1CCSCC1	-1.5	-4	-2	-7	-6	-1	-0.5	-8	4	2.0
COc1ccc(-c2noc(CN3CCN(C(=O)c4cccs4)CC3)n2)c(OC)c1OC	1.6	-7	8	0	6	6	0.8	1	1	2.6
CCCc1cc(=O)[nH]c(SCC(=O)c2c(N)n(C3CC3)c(=O)[nH]c2=O)n1	-0.1	1	.	.	-1	9	-1.6	-7	.	3.1

3 entries from above, arranged by the number in LANA-H2A inh, highest first.
| Molecule | LANA-H2A inh |
| --- | --- |
| CCCc1cc(=O)[nH]c(SCC(=O)c2c(N)n(C3CC3)c(=O)[nH]c2=O)n1 | 3.1 |
| O=C(c1cc(COc2ccc(F)c(F)c2)on1)N1CCSCC1 | 2.0 |
| CC(=O)c1ccc(NC(=O)COC(=O)CCc2ccc(S(=O)(=O)N3CCOCC3)cc2)cc1 | -2.6 |

Following part.
smiles	Bfl-1 A1 inh	Beta apoptosis	Beta2AR agonist	T cruzi inh	rRNA inh HTS	rRNA inh HTS OD600	rRNA inh HTS RFP	ALR inh	Calb FLC	LANA-H2A inh
Cc1ccc(-c2c(C)sc(=NC(=O)c3ccco3)n2C)cc1	-0.9	-1	0	26	.	.	.	0	31	11
CCOC(=O)C1=C(C)Nc2ccccc2N=C1NC(=O)C(c1ccccc1)c1ccccc1	0.2	-8	5	53	-21*	-3.6*	-2.8*	-4	-1	-1.5
CCc1nccn1CCC(=O)NC1CC(C)(C)Cc2c1cnn2-c1ccc(OC)cc1 (stereo unspecified)	1.5	2	-4	3	0	1	-0.8	-8	-2	3.6
Cc1cnc([N+](=O)[O-])n1CCOC(=O)NC(=O)c1ccccc1Cl	0.7	-3	4	-4	19	12	3.5	-14	4	-1.6
COC(=O)CCCCCCCCCC[N+]1(C)CCCCC1	-0.8	-4	3	-9	.	.	.	.	2	-6.8
CC1(c2ccc3c(c2)OCCO3)NC(=O)N(CC(=O)c2ccc[nH]2)C1=O (stereo unspecified)	0.9	-4	3	.	2	1	-0.5	-11	.	-5.8
CCC(=O)N1CCc2cc(Br)cc(S(=O)(=O)NCCCN(CC)Cc3ccccc3)c21	-0.4	-4	-7	19	5	5	-0.7	2	-7	-8.4
COc1ccccc1N1CCN(C2CCCN(C(=O)CCC(=O)N(C)C)C2)CC1 (stereo unspecified)	0.6	0	2	1	-3	4	-2.5	10	-8	-0.7
CC(=O)N(C(C)=O)n1c(/C=C/c2ccc([N+](=O)[O-])cc2)nc2ccccc2c1=O	1.5	-9	4	9	13	11	1.6	15	1	3.5
Cc1cc(OCC(=O)NNC(=S)NC(=O)c2ccc(Br)o2)ccc1Cl	0.6	6	1	.	5	-17	-2.5	88*	50	0.6
CC(=O)Nc1ccc(S(=O)(=O)Nc2cccc(-n3c(C)nc4ccccc4c3=O)c2)cc1	2.8	-2	0	4	-4	-7	0.4	-1	2	4.2
Cc1cccc(/C(N)=N/OC(=O)c2ccc(Br)o2)c1	-4.6	-2	-5	-2	.	.	.	-20	-1	-0.1
COc1cccc(C(=O)NCCS(=O)(=O)NCc2cccnc2)c1	1.0	-1	0	-5	6	9	0.2	0	4	-2.6
CC(C)c1nn2c(N)c(/C=C3\C=Nc4ccccc43)c(=O)nc2s1	0.1	5	4	-5	-3	1	14	8	-1	-5.6
O=C(CCN1C(=O)C2C3CCC(C3)C2C1=O)OCC(=O)c1ccc(Cl)cc1 (stereo unspecified)	-0.1	-13	12	-14	10	4	5.8	-16	9	-1.7
O=C(CCC(=O)c1cccs1)NC1CCCCCC1	-0.3	-1	-7	1	13	17	0.6	28	-10	0.1

5 neighbouring records already listed:
smiles	Bfl-1 A1 inh	Beta apoptosis	Beta2AR agonist	T cruzi inh	rRNA inh HTS	rRNA inh HTS OD600	rRNA inh HTS RFP	ALR inh	Calb FLC	LANA-H2A inh
Cc1cccc(/C(N)=N/OC(=O)c2ccc(Br)o2)c1	-4.6	-2	-5	-2	.	.	.	-20	-1	-0.1
COc1cccc(C(=O)NCCS(=O)(=O)NCc2cccnc2)c1	1.0	-1	0	-5	6	9	0.2	0	4	-2.6
CC(C)c1nn2c(N)c(/C=C3\C=Nc4ccccc43)c(=O)nc2s1	0.1	5	4	-5	-3	1	14	8	-1	-5.6
O=C(CCN1C(=O)C2C3CCC(C3)C2C1=O)OCC(=O)c1ccc(Cl)cc1 (stereo unspecified)	-0.1	-13	12	-14	10	4	5.8	-16	9	-1.7
O=C(CCC(=O)c1cccs1)NC1CCCCCC1	-0.3	-1	-7	1	13	17	0.6	28	-10	0.1

Following part:
smiles	Bfl-1 A1 inh	Beta apoptosis	Beta2AR agonist	T cruzi inh	rRNA inh HTS	rRNA inh HTS OD600	rRNA inh HTS RFP	ALR inh	Calb FLC	LANA-H2A inh
O=C(NCCc1nc2ccccc2[nH]1)c1ccc([N+](=O)[O-])cc1	-0.5	1	6	28	11	8	0.6	-19	-3	0.3
CN(C)S(=O)(=O)N1CCC(Oc2cccc(C(=O)NCCC3=CCCCC3)c2)CC1	-0.6	15	20	13	-32	-26	2.5	-3	-2	3.0
CCOC(=O)N1C(=O)[C@](CC)(c2ccccc2)N1C(=O)OCC	0.9	-5	2	-11	20	8	-11	.	4	2.3
CC(=O)N1CCc2cc(S(=O)(=O)NC(C(=O)NC(C)c3ccccc3)C(C)C)ccc21 (stereo unspecified)	0.9	-11	-6	-16	12	1	-0.2	1	-12	-5.0
CCOc1ncccc1C(=O)NCCc1c[nH]c2ccccc12	-1.2	2	2	13	1	1	-3.0	.	13	7.7
O=C(CNC(=O)C(c1ccccc1)c1ccccc1)OCc1ccccc1	-0.8	-9	6	9	17	18	3.5	.	-1	-7.5
COc1ccc(C(=O)CCC(=O)N2CCN(c3ccc(C)cc3)C(C)C2)cc1 (stereo unspecified)	-0.9	-5	1	-1	-12	-38	-3.8	99*	5	-0.2
